High-throughput results: PubChem, National Center for Advancing Translational Sciences (NCATS)
VDR inh = vitamin D3 receptor (human) inhibition | Potency, µM, for inactives: max response, negative = inhibition, actives largely listed as inhibitors | AID 504847 | VDR-SRC2-3 peptide fluorescence polarization, 2 h | 400,000 compounds, 0.93% hits; active = well fitted inhibition curve with a large enough effect; inconclusive = small, poorly fitted or top-dose-only effect, or another doubt; inactive = no such curve, though single readings can be large or run the other way; note: series mostly up to about 120 µM
Target sequence (P11473 whole entry, looked up): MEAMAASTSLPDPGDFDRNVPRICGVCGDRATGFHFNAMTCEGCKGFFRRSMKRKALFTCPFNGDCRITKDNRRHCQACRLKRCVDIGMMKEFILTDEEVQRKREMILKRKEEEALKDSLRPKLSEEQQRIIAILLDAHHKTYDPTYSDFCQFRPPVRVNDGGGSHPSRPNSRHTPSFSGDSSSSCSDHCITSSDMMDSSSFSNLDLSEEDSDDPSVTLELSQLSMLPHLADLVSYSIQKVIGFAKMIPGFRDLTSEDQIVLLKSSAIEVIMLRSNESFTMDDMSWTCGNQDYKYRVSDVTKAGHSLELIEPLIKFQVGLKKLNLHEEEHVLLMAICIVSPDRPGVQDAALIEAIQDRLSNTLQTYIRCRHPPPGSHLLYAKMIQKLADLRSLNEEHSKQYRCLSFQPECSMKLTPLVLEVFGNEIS
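Inhibition of the VDR/SRC2-3 peptide interaction is quantified by fluorescence polarization. Compounds (23 nl, pintool) incubate with the reagents for 2 hours at ambient room temperature.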
Starred values were filed as active, the others as inactive; u = inconclusive; & = joins results of further samples; [ ] = dose if it differs, or a comment. % is set by controls: 0 for no effect and ±100 for the full control effect; potency is the fitted concentration of half-maximal effect. Only part of the results is shown; the hit share may differ from the screen's.

The first six records, to show the layout:
SMILES	VDR inh
CCCCCc1ccc(-c2ccc(OC)cc2)nc1	1.7%
COc1ccc(CCNC(=O)CSc2nc(C)cc(C)n2)cc1OC	5.3%
Cc1ccccc1-c1cc(C(=O)Nc2sc(C)c(C)c2C(N)=O)c2ccccc2n1	-1.2%
Cc1c(C(=O)Nc2ccc(F)cc2)nnn1-c1cccc(C(F)(F)F)c1	-3.6%
O=C(Nc1cc(C(F)(F)F)ccc1Cl)C(Sc1ccccn1)c1ccccc1 (centres undefined)	-3.9%
O=C(Nc1ccccc1)C(O)C(O)C(=O)Nc1ccccc1 (centres undefined)	-3.3%

The list itself, from the start:
SMILES	VDR inh
CCCCCc1ccc(-c2ccc(OC)cc2)nc1	1.7%
COc1ccc(CCNC(=O)CSc2nc(C)cc(C)n2)cc1OC	5.3%
Cc1ccccc1-c1cc(C(=O)Nc2sc(C)c(C)c2C(N)=O)c2ccccc2n1	-1.2%
Cc1c(C(=O)Nc2ccc(F)cc2)nnn1-c1cccc(C(F)(F)F)c1	-3.6%
O=C(Nc1cc(C(F)(F)F)ccc1Cl)C(Sc1ccccn1)c1ccccc1 (centres undefined)	-3.9%
O=C(Nc1ccccc1)C(O)C(O)C(=O)Nc1ccccc1 (centres undefined)	-3.3%
CCN(C[C@H]1N[C@@](CC)(C(=O)OC)[C@H]2C(=O)N(Cc3ccccc3)C(=O)[C@@H]12)S(=O)(=O)c1ccc(OC(F)(F)F)cc1	-5.0%
CCCOc1ccccc1NC(=O)c1c(-c2ccccc2)noc1C	-5.3%
O=C(Cn1nnc(-c2cccs2)n1)NCc1cccs1	1.0%
CC(c1nnc(SCC(=O)Nc2cccnc2Cl)n1-c1ccccc1)N(C)C (centres undefined)	5.0%
O=C(O)CN1C(=O)/C(=C\c2ccc(OC(=O)c3ccco3)cc2)SC1=S	u
O=C(CC1C(=O)NCCN1Cc1ccccc1)NC1CCCCCC1 (centres undefined)	12.5%
CCN(CC(=O)NCC1CCCO1)S(=O)(=O)c1ccc(Cl)cc1 (centres undefined)	5.0%
COc1ccc(C(C)=NNC(=O)c2cccc(S(=O)(=O)N3CCCC3)c2)cc1	-4.4%
Cc1ccc(C)c(NC(=O)C2CCCN2S(=O)(=O)c2ccc3c(c2)CCCC(=O)N3)c1 (centres undefined)	-2.1%
CC(C)Cc1nnc(NC(=O)C2CCCC2)s1	27.0%
Cc1ccc(-c2c[n+](CC(=O)c3cccs3)c3n2CCC3)cc1	-10.2%
NC(=O)NN=C(C1CC1)C1CC1	-13.7%
COCCNc1cc(C)nc2c3c(C)cc(C)nc3nn12	9.3%
COc1cccc(CN2C(=O)c3ccccc3Sc3ccc(C(=O)NCc4ccccc4)cc32)c1	-17.8%
Cc1ccc(NC(=O)c2ccc(F)cc2)nc1	-8.3%
Cc1ccc(C2CC(=O)C(C=NCCN3CCN(C(=S)Nc4ccc(F)cc4)CC3)=C(O)C2)cc1 (centres undefined)	-3.0%
O=C(COC(=O)c1ccc(S(=O)(=O)N2CCOCC2)cc1)Nc1ccccc1F	-11.2%
CC(=O)c1c(C)cc(C)c(CSc2nnc(-c3ccco3)o2)c1C	0.5%
Oc1ccc(Nc2nc3ccccc3nc2Nc2ccc(O)cc2)cc1	u
Remaining list, next part
SMILES	VDR inh
Cc1ccc2c(c1)N(CCC(=O)NCc1ccco1)C(=O)CO2	0.5%
O=C(CN1N=C(c2ccccc2)CCC1=O)NCCN1CCc2ccccc2C1	-19.9%
O=C(CCc1nc(-c2ccccc2F)no1)NCCN1CCOCC1	11.8%
Cc1ccc(S(=O)(=O)N(C)C)cc1NC(=O)COC(=O)CCNS(=O)(=O)c1ccccc1	0.7%
COc1ccc(CNS(=O)(=O)c2csc(C(N)=O)c2)cc1OC	-11.8%&9.7%
C=CCc1c(C)nc(SC(C)C)[nH]c1=O	3.4%
CCCS(=O)(=O)c1c(S(=O)(=O)CCC)c2ccc(C(N)=O)cn2c1C(=O)c1ccccc1	-10.6%
O=C(NCCCN1CCCCC1)C1CC(=O)N(CCc2ccccc2)C1 (centres undefined)	11.8%
Cc1cc(C)n(Cc2ccc(C(=O)NCc3ccco3)o2)n1	-2.3%
Cc1cc(C)n(Cc2ccc(C(=O)O)o2)n1	-16.0%
CCCn1c(SCC(O)c2ccccc2)nc2ccccc21 (centres undefined)	14.9%
S=C(NCCc1ccccc1)N1CCn2cccc2C1c1ccncc1 (centres undefined)	u
CC(Oc1ccc(Cl)cc1)C(=O)Nc1ccccc1C(=O)N1CCOCC1 (centres undefined)	-8.1%
COC(=O)c1ccccc1NC(=O)CSc1nnc(C(CO)NC(=O)c2ccccc2Cl)n1C (centres undefined)	31.1%[activator]
O=C(O)C1CCN(C(=O)CSc2nc3ccccc3c(=O)n2-c2ccc(Cl)cc2)CC1	0.9%
FC(F)(F)c1ccc(CSc2nccn2-c2ccccc2)cc1	-8.6%
CN1CCN(C=NC2=NN(c3cccc(C(F)(F)F)c3)CC2)CC1	-6.1%
CC(=O)c1cccc(OC(=O)Oc2cccc(C(C)=O)c2)c1	-9.4%
Cc1ccc(Cl)cc1NC(=O)Nn1cnnc1	-6.8%
COc1ccc(C(CNS(=O)(=O)c2cccc(F)c2)N2CCCC2)cc1 (centres undefined)	0.8%
C=CCn1c(=O)c(C(=O)Nc2ccccc2C)c(O)c2ccccc21	-7.6%
Cc1ccc(CNC(=O)CSc2nc(=O)n3ccccc3n2)cc1	-9.5%
Clc1ccc(CON/C=N/c2ncnc3sccc23)c(Cl)c1	-1.3%
CCC1(c2ccc(F)cc2)NC(=O)N(CC(=O)Nc2ccc3c(c2)OCCO3)C1=O (centres undefined)	17.6%
N=c1n(CC(=O)c2ccc([N+](=O)[O-])cc2)c2ccccc2n1Cc1ccccc1	-21.5%
Next structures follow:
SMILES	VDR inh
COCCSc1nnc(NC(=O)CCS(=O)(=O)Cc2ccccc2)s1	u
CCCCn1c(=N)n(CC(O)c2ccccc2)c2ccccc21 (centres undefined)	13.6%
CN=C(Nc1cccnc1)c1cccc(C(F)(F)F)c1	8.6%
O=C(OCC(=O)N(C1CCCCC1)C1CCCCC1)c1ccccc1O	u
COc1ccc(-c2cc(=O)c3c(O)c(OC)c(O[C@@H]4OC(COC5OC(C)C(O)C(O)[C@@H]5O)C(O)C(O)C4O)cc3o2)cc1 (some centres undefined)	2.0%
Cc1nc2ccccn2c1C(=O)N/N=C/c1ccc(CNC(=O)C(=O)Nc2ccccc2)o1	6.1%
Cc1c(C(=O)N2CCN(C(=O)c3ccco3)CC2)oc2c(Cl)cccc12	8.6%
Cc1ccc(Cn2c(=O)sc3ccccc3c2=O)cc1	-6.9%
COC(=O)c1ccc(S(=O)(=O)N2CCC(C(N)=O)CC2)n1C	16.3%
CS(=O)(=O)c1nc(S(=O)(=O)c2ccc(Cl)cc2)c(NCc2ccccn2)s1	-9.2%
O=C(O)/C=C\C(=O)Nc1ccc(N2CCN(c3cccc(Cl)c3)CC2)cc1	-7.6%
COc1cc(NC(=O)Cn2cnc3ccccc3c2=O)c(OC)cc1Cl	29.9%
Cc1nn(C)c(C)c1NC(=O)C12CC3CC(CC(C3)C1)C2	-5.1%
COc1ccc(-c2cc(C3CC3)nc3sc(C#N)c(N)c23)cc1	-21.9%
O=C(COC(=O)c1ccc2c(c1)OCCO2)NCCc1ccc(F)cc1	4.6%
CN(C)c1ccc(CNC(=O)c2ccc(NC(=O)N3CCCCc4ccccc43)cc2)cc1	10.2%
Cc1cnc(NC(=O)CSc2nnc3ncccn23)s1	-8.3%
COc1ccc(OC)c(/C=N/n2c(C)nc3ccccc3c2=O)c1	18.0%
C=CCSc1nnc2n(-c3ccccc3OC)c(=O)c3c4c(sc3n12)CCC4	4.2%
O=C(N/N=C/c1coc2ccccc2c1=O)c1ccccc1Br	u
CC1CCCc2sc3nc(SCC(=O)c4ccc(Br)cc4)nc(N)c3c21 (centres undefined)	-18.5%
COc1cc(C(=O)NCCNc2nc3cc(C)ccc3cc2C#N)cc(OC)c1OC	-6.0%
CC(C)c1ccc(/C=C2\NC(=O)NC2=O)cc1	-3.7%
Cc1nn(C)c(C(=O)N/N=C/c2cccnc2)c1Br	8.7%
Cc1nc(N2CCOCC2)c2cc(-c3ccccc3)sc2n1	20.5%
Next section
SMILES	VDR inh
O=C(NC(=S)Nc1ccc(N2CCCCC2)c(Cl)c1)c1cccs1	-7.2%
c1ccc(-c2csc3nnc(SCc4ccc5c(c4)OCO5)n23)cc1	79.4µM*
CC(C)C[C@@H](CN1CCCC1CN1C(=S)NC[C@@H]1Cc1ccc(O)cc1)N1C[C@H](Cc2ccccc2)N(CC2CCCCCC2)C1=S (some centres undefined)	-9.4%
COc1ccc(C(=O)OCn2nnc3ccccc3c2=O)cc1	-10.8%
CC1CCc2nn(CC(=O)N3CCCCCC3)cc2C1 (centres undefined)	-21.7%
Cc1ccccc1NC(=O)Cn1c(=O)oc2ccccc21	9.5%
Cc1cccc(Oc2ccc(S(=O)(=O)N3CCCCC3)cc2N)c1	-5.5%
O=C(O)c1ccccc1SCCS(=O)(=O)c1ccc(Cl)cc1Cl	-12.0%
C=C(CCO)C1=CCN(S(=O)(=O)C(C)(C)C)[C@H]1CCO	2.5%
COc1ccccc1OCC(=O)Nc1ccccc1C(=O)NCc1cccnc1	-0.9%
Cn1cc(-c2nc3cnc(OCc4ccccc4)nc3n(CCC#N)c2=O)c2ccccc21	12.2%
Cc1cccc(C(=O)NNC(=O)CSc2nnc(C(C)C)n2C)c1	-8.1%
Cc1nnc(NC(=O)CN2CCN(Cc3ccccc3Cl)CC2)s1	u
CN(C)C1=NCCN1CCCCc1ccccc1	-1.6%
Cc1ccc(OCC(=O)N(c2ccccn2)C2CCCCC2)c(C)c1	-2.7%
CCOc1ccc(Nc2nc(Cc3nnc(SCC(=O)NC4CCCCC4)n3C)cs2)cc1	-0.4%
CC(=O)Nc1ccc(SCC(=O)Nc2cc(C)on2)cc1	-21.8%
COC(=O)c1c([N+](=O)[O-])c(OC)c(OC)c(OC)c1[N+](=O)[O-]	-17.6%
Cn1cnnc1-c1cccc(NC(=O)c2cc(F)c(F)cc2Cl)c1	14.4%
CCCN(C(=O)COC(=O)c1nc2nc(C)cc(C)n2n1)C1CCS(=O)(=O)C1 (centres undefined)	-3.4%
COc1ccc(CNC(=S)Nc2ccccc2)cc1	-4.8%
CNc1nc2[nH]c(=O)c3c(c2s1)OC(N)=C(C#N)C3c1ccccc1 (centres undefined)	-10.6%
O=C1CN(S(=O)(=O)c2cccc(Cl)c2Cl)c2ccccc2N1	2.3%
CCOC(=O)[C@H]1[C@H]2COc3cc(OC)ccc3[C@@H]2N2C(=O)c3cc(F)c(F)cc3NC(=O)[C@@]12C	-4.7%
CC[C@]12c3[nH]c4ccc(OC)cc4c3CCN1C(=O)C(CC(=O)NCCc1ccccn1)C[C@@H]2C(=O)N1CCN(C(=O)C2CC2)CC1 (some centres undefined)	4.7%

An excerpt of these results, as comma-separated lines:
compound,VDR inh
C=CCc1c(C)nc(SC(C)C)[nH]c1=O,3.4%
CCCS(=O)(=O)c1c(S(=O)(=O)CCC)c2ccc(C(N)=O)cn2c1C(=O)c1ccccc1,-10.6%

Sorted by number of heavy atoms (smallest number first): some entries from above
SMILES	VDR inh
Cc1ccc(Cn2c(=O)sc3ccccc3c2=O)cc1	-6.9%
Cc1nn(C)c(C)c1NC(=O)C12CC3CC(CC(C3)C1)C2	-5.1%
COC(=O)c1ccccc1NC(=O)CSc1nnc(C(CO)NC(=O)c2ccccc2Cl)n1C (centres undefined)	31.1%[activator]

The list goes on:
SMILES	VDR inh
COc1ccc(C(=O)/C=C/c2cn(CC(O)CN3CCCCCC3)c3ccccc23)cc1OC (centres undefined)	8.8%
COc1ccc(Cl)cc1C(=O)NCCCn1ccnc1	5.6%
O=C(c1cnn2c(C(F)(F)F)cc(-c3cccs3)nc12)N1CCCC1	-2.7%
Cc1ccc(Cl)cc1N1CCN(Cc2nnnn2Cc2ccco2)CC1	-20.4%
Cc1onc(-c2ccccc2)c1C(=O)Nc1nnc(CC(C)(C)C)s1	-14.4%
CN(C)C(=O)c1ccc(-c2nc(-n3ccnc3)c3ccccc3n2)cc1	-19.2%
CCOC(=O)N1CCN(C(=S)NC(=O)c2c(-c3c(Cl)cccc3Cl)noc2C)CC1	14.7%
CN(C(=O)CSc1nc2ccccc2n1CC(=O)NCc1ccc(F)cc1)c1ccc(F)cc1	0.2%
Cc1nc(SCc2nc3ccccc3[nH]2)c2oc3cc([N+](=O)[O-])ccc3c2n1	4.7%
CC1CCCC(C)N1C(=O)CSc1nnnn1C1CCCC1 (centres undefined)	0.7%
O=S(=O)(c1ccc(F)cc1)c1nc(-c2ccc(F)cc2)oc1NCCN1CCOCC1	-11.2%
CCOC(=O)C1(C)C(C(=O)OC)=C(c2ccc(OC)cc2)c2ccccc2N1C(=O)OC (centres undefined)	u
COC(=O)CNC(c1ccccc1)c1cc(Br)ccc1NC(=O)c1ccccc1 (centres undefined)	-2.3%
O=C(c1ccc(=O)oc1)N1CCN(c2ccc(F)cc2)CC1	0.3%
O=C(COC(=O)Cc1ccccc1F)Nc1ccc(F)cc1F	0.5%
Cc1ccc(NC(=O)CSc2nc3ccccc3c3nc(CCn4cncc4C)nn23)c(C)c1	4.1%&-1.7%
CCN(CC)c1ccc(-c2nc3cnccc3n2C)cc1	16.1%
C=CCN(c1ccccc1OC)S(=O)(=O)c1cccc(C(=O)Nc2nnc(C3CC3)s2)c1	4.5%
COCCCN1C(=O)N(c2ccc(F)cc2)C(=O)C1CC(=O)Nc1ccccc1 (centres undefined)	-21.7%
CCOc1ccc(CNC(=O)C2CCN(C(=O)N3CC(C)Oc4ccccc43)CC2)cc1 (centres undefined)	3.5%
COCCn1c(=O)[nH]c2cc(C(=O)NCCN3CCN(c4ccccc4)CC3)ccc2c1=O	-8.2%
c1ccc2c(c1)SCc1c-2[nH]c2ccccc12	10µM*
CCOC(=O)Cn1nc(C)cc1NC(=O)c1cccnc1	-7.0%
Cc1ccc(S(=O)(=O)N(C)CC(=O)N2CCN(C(=O)c3ccco3)CC2)cc1	-2.0%
CC(C)NC(=O)c1cc(-c2ccco2)nn1-c1ccc(Cl)cc1	u
CCn1nc(C)c(CNC(=O)CC2C(=O)NCCN2Cc2ccc(C)o2)c1C (centres undefined)	19.5%
